Screens: PubChem BioAssay, several laboratories
ALR H2O2 inh – human ALR oxidase inhibition via reduced H2O2; inhibition, % (test concentration not listed); purified ALR, DTT oxidation, H2O2 HRP-luminol luminescence; 290,000 compounds, 3.8% hits; P55789;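 active means mean and each replicate at 75% or more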;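 further: stock transfer was 7.5 nL into about 7.5 µL; 0% = neutral wells and 100% = wells with inactivated enzyme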
Target sequence (P55789 whole entry, looked up): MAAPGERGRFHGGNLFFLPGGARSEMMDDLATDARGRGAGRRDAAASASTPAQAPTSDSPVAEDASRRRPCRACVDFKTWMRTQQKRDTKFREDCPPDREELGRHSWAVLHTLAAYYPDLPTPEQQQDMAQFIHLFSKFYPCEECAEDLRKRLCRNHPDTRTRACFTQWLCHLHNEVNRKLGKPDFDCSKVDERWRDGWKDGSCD
Vif A3G – inhibitors of Vif binding to APOBEC3G peptide, primary screen, biochemical, TR-FRET, GST-Vif 1-94, biotin-A3G peptide, dose response retest (AID 1117319); TR-FRET GST-Vif / biotin-A3G peptide binding; higher % means a stronger effect; test concentration not given here; strong numbers were not always called active; 260,000 compounds, 0.57% hits; one-dose inhibition, %; IC50 in µM for titrated hits;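 active means above the screen mean plus three standard deviations and confirmed in dose response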;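 further: Vif residues 1-94 fused to GST binding biotinylated APOBEC3G peptide 110-148; 0% = full assay without inhibitor and 100% = GST in place of GST-Vif; retest series ran down from 100 µM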
Ecoli growth – E. coli growth inhibition | OD600 absorbance (concentration not given with the values) | AID 1053175 | 330,000 compounds, 0.21% hits | Escherichia coli growth, OD600, 23 h; active compounds read low;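 active means OD600 absorbance below the run mean of sample wells minus 3.6 SD, in any replicate, cut at about 0.56 in these data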;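 further: stock transfer was 300 nL into about 60 µL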
HNF4A DNA FP – change in binding of human HNF4 alpha to DNA; 360,000 compounds, 0.3% hits; P41235; activity change, % at 10 µM; HNF4a-FITC DNA binding, fluorescence polarization, 1 h; AID 1224865; in the data active means activity change above about 30%, passing the limit was not always enough;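 further: controls were the assay level and a saturating level of protein; the project sought stronger binding though the title names inhibitors; some compounds called inactive have numbers as strong as hits; positive values seem to mean higher polarization but the record does not say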
rRNA inh HTS – inhibits bacterial ribosomal RNA function over humanized ribosomes | E. coli WT GFP vs humanized-ribosome RFP mutants, fluorescence, 24 h; active compounds read low; DMSO median 0, no signal -100 | GFP signal change (wild-type ribosome), % (concentration not given with the values) | 350,000 compounds, 1.6% hits | AID 720706;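 active means significant combined selectivity score with lowered wild-type GFP, culture density cut under 30%, mutant RFP and density less affected; inactive means any of these conditions unmet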; further: one replicate is shown; some compounds called inactive have numbers as strong as hits
FGF22 binding – FGF22 (human) thermal shift binding; recombinant FGF22 thermal shift, SYPRO orange fluorescence; percent of sucrose octasulfate shift, DMSO zero; calls only at 9.99 µM; 340,000 compounds, 1.5% hits; AID 651658;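 active means melting point raised past a set limit in the mean and every replicate; three in four hits are not shown here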
Target sequence (Q9HCT0 whole entry, looked up): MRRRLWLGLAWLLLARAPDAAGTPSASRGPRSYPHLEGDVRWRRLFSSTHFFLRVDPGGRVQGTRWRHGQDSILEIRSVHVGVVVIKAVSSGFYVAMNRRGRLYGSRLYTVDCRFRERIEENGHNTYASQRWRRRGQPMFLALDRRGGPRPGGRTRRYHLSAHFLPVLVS
AF4-AF9 inh – blocks AF4 peptide binding to human AF9 | AID 651704 | P42568 | 350,000 compounds, 0.47% hits | inhibition, % at 10 µM | AlphaScreen, biotin-AF4 peptide binding to FLAG-AF9;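 active means every replicate reaching a set inhibition limit, whatever the replicate mean, cut at about 25% in these data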;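 further: 0% = plate neutral control median and 100% = total signal loss; the record names both 10 and 1 µM as test concentration; the first replicate is given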
Target sequence (P42568 whole entry, looked up): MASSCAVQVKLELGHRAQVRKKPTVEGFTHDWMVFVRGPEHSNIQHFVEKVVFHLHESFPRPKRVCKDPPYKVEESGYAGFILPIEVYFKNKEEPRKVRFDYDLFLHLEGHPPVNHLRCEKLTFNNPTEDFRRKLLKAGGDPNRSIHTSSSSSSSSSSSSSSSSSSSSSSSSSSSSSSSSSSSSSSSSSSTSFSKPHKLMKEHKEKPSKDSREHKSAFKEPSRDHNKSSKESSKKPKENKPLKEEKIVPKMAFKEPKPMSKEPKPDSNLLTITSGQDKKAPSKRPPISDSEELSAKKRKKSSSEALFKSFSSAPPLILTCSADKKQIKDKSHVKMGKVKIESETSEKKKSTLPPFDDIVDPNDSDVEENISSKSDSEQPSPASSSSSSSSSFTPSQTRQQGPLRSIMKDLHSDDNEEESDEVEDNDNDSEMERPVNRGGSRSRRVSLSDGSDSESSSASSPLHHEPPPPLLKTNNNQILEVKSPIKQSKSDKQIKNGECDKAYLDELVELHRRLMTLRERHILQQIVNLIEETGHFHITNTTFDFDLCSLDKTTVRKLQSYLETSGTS
rRNA inh HTS OD600 – also measured in rRNA inh HTS; calls as there; OD600 change, %; measured here: OD600 growth;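 optical density of the mix in the first replicate; 0 = DMSO median and -100 = no signal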
rRNA inh HTS RFP – further read-out of rRNA inh HTS, marked with its call; RFP signal change, %; measured here: RFP humanized mutant strains;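 first replicate; 0 = DMSO median and -100 = no signal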
Active calls of the source: *; i = inactive; x = no result given.

SMILES	ALR H2O2 inh	Vif A3G	Ecoli growth	HNF4A DNA FP	rRNA inh HTS	rRNA inh HTS OD600	rRNA inh HTS RFP	FGF22 binding	AF4-AF9 inh
CCCC#Cc1cnc2c(c1)C(=O)N([C@@H](C)CO)C[C@@H](C)[C@H](CN(C)C(=O)NC1CCCC1)O2	x	x	x	x	6	-2	-0.8	i	-0.6
O=C(COC(=O)c1cncc(Br)c1)Nc1ccc(F)c(F)c1F	x	-1%	0.65	3.8	11	7	-1.0	i	0.2
CCc1ccccc1NS(=O)(=O)c1ccc2[nH]cc(C(=O)NCC3CCCO3)c(=O)c2c1 (configuration not stated)	-4	15%	0.69	3.7	x	x	x	x	x
CC(Sc1nncn1C)C(=O)Nc1nnc(C(C)C)s1 (configuration not stated)	26	-3%	0.78	-1.4	3	6	-1.8	i	3.0
O=C(C[C@@H]1C[C@@H]2c3cc(NC(=O)c4ccc5c(c4)OCO5)ccc3O[C@@H]2[C@H](CO)O1)NC1CCCCC1	x	x	x	x	5	12	-1.4	i	-1.0
S=c1nc[nH]c2c1cnn2Cc1ccccc1	26	-3%	0.69	1.1	-2	3	-3.6	i	3.3
C=CCN1CCN(C(=O)CCCc2ccccc2)CC1	-13	x	0.73	-0.9	9	19	2.4	i	-24
CCn1cc(C(=O)Nc2sc(C)c(C)c2C(=O)OC)cn1	-2	-7%	0.69	1.1	x	x	x	x	x
CCCCCCNC(=O)c1ncn[nH]1	-2	-3%	0.69	-2.8	15	12	0.9	i	-0.9
N#CCCOC1(C#CCN2CCCC2)CCCCC1	-5	x	0.7	0.0	8	13	0.6	i	2.3
O=C(OCC(=O)N(C1CCCCC1)C1CCCCC1)c1ccc(O)cc1	1	-5%	0.66	2.2	4	8	2.0	i	-3.8
COc1ccccc1CNC(=O)COC(=O)c1ccc(NC(N)=O)cc1	-2	64%	0.77	-2.3	x	x	x	x	x
CN(C)c1ccc(C2Nc3ccccc3C(=O)N2CCN2CCNC2=O)cc1 (configuration not stated)	51	x	0.7	5.2	7	-5	1.9	i	2.1
O=C(Nc1cc(C(F)(F)F)ccc1-n1cncn1)c1cn2ccccc2n1	-2	x	0.65	-1.2	2	0	0.7	i	-0.4
C[C@@H]1CN([C@@H](C)CO)C(=O)c2cc(NC(=O)Nc3ccc(F)cc3)ccc2O[C@H]1CN(C)Cc1ccc(C(F)(F)F)cc1	x	x	x	x	-1	-25	3.4	i	2.7
CCN(C[C@H]1N[C@@](C)(C(=O)OC)[C@H]2C(=O)N(C)C(=O)[C@@H]12)C(=O)Nc1ccc(Cl)cc1	x	2%	0.71	0.1	2	7	-1.2	i	1.6
CC(C)C#Cc1cnc2c(c1)C(=O)N([C@@H](C)CO)C[C@H](C)[C@@H](CN(C)C(=O)CN1CCOCC1)O2	x	x	x	x	3	8	-2.6	i	-3.8
CC(=O)Nc1cc(-c2ccccc2CN(C)C)cn2c(-c3ccc(C(C)=O)cc3)cnc12	x	x	x	-0.9	8	11	-1.6	i	-1.2
O=C(NN=Cc1cccc(O)c1O)c1ccccc1	x	x	x	1.9	-22	-40	-6.0	i	1.6
COc1ccc(NC(=O)Nc2ccc3c(c2)CC(=O)N([C@H](C)CO)C[C@@H](C)[C@@H](CN(C)C)O3)cc1	x	x	x	x	5	7	-0.7	i	2.2
CCOC(=O)CSc1nc2c(sc(=S)n2-c2ccccc2OC)c(=O)n1-c1ccccc1OC	-4	12%	0.67	4.0	1	7	0.9	i	4.5
COc1ccc(-n2c(C)ccc2C)c([N+](=O)[O-])c1	-9	x	0.7	-1.5	2	5	-0.9	i	0.2
O=C(Nc1ccc(Cl)cc1)Nc1ccc(Oc2cccnc2)nc1	4	-5%	0.6	0.1	2	7	-1.5	i	-1.8
CCOC(=O)Nc1ccc2c(c1)N(C(=O)CCN1CCN(C)CC1)c1ccccc1S2	1	-5%	0.8	-0.1	x	x	x	x	x
CCc1ccccc1NC(=S)N(CCN1CCCCCC1)Cc1ccco1	-2	1%	0.7	0.3	2	1	-2.1	i	0.2
CC(C)Nc1nnc(SCC(=O)Nc2sccc2C#N)s1	-5	2%	0.63	5.8	-25*	-7.2*	6.0*	i	1.6
CC(=O)Nc1ccc(NC2CCCCC2NS(=O)(=O)c2ccccc2)cc1 (configuration not stated)	99*	6%	0.7	5.9	-2	5	-3.8	i	0.5
CCOC(=O)C1(CCc2ccccc2)CCN(Cc2ccc(O)cc2)CC1	-35	-3%	x	-1.5	-12	-9	3.0	i	2.4
COC(=O)c1ccc(NC(=S)NC2CC2)cc1	6	x	0.65	3.3	5	2	-1.1	i	-2.0
Cc1ccc2c(Cl)c(C(=O)NCCCN3CCOCC3)sc2c1	x	-2%	x	0.7	3	8	2.6	i	-15

Sorted by SMILES length (smallest number first): 14 of the compounds above.
SMILES	ALR H2O2 inh	Vif A3G	Ecoli growth	HNF4A DNA FP	rRNA inh HTS	rRNA inh HTS OD600	rRNA inh HTS RFP	FGF22 binding	AF4-AF9 inh
COC(=O)c1ccc(NC(=S)NC2CC2)cc1	6	x	0.65	3.3	5	2	-1.1	i	-2.0
CC(C)Nc1nnc(SCC(=O)Nc2sccc2C#N)s1	-5	2%	0.63	5.8	-25*	-7.2*	6.0*	i	1.6
Cc1ccc2c(Cl)c(C(=O)NCCCN3CCOCC3)sc2c1	x	-2%	x	0.7	3	8	2.6	i	-15
COc1ccc(-n2c(C)ccc2C)c([N+](=O)[O-])c1	-9	x	0.7	-1.5	2	5	-0.9	i	0.2
COc1ccccc1CNC(=O)COC(=O)c1ccc(NC(N)=O)cc1	-2	64%	0.77	-2.3	x	x	x	x	x
CCOC(=O)C1(CCc2ccccc2)CCN(Cc2ccc(O)cc2)CC1	-35	-3%	x	-1.5	-12	-9	3.0	i	2.4
CC(=O)Nc1ccc(NC2CCCCC2NS(=O)(=O)c2ccccc2)cc1 (configuration not stated)	99*	6%	0.7	5.9	-2	5	-3.8	i	0.5
O=C(Nc1cc(C(F)(F)F)ccc1-n1cncn1)c1cn2ccccc2n1	-2	x	0.65	-1.2	2	0	0.7	i	-0.4
CCOC(=O)Nc1ccc2c(c1)N(C(=O)CCN1CCN(C)CC1)c1ccccc1S2	1	-5%	0.8	-0.1	x	x	x	x	x
CCOC(=O)CSc1nc2c(sc(=S)n2-c2ccccc2OC)c(=O)n1-c1ccccc1OC	-4	12%	0.67	4.0	1	7	0.9	i	4.5
CC(=O)Nc1cc(-c2ccccc2CN(C)C)cn2c(-c3ccc(C(C)=O)cc3)cnc12	x	x	x	-0.9	8	11	-1.6	i	-1.2
COc1ccc(NC(=O)Nc2ccc3c(c2)CC(=O)N([C@H](C)CO)C[C@@H](C)[C@@H](CN(C)C)O3)cc1	x	x	x	x	5	7	-0.7	i	2.2
CCN(C[C@H]1N[C@@](C)(C(=O)OC)[C@H]2C(=O)N(C)C(=O)[C@@H]12)C(=O)Nc1ccc(Cl)cc1	x	2%	0.71	0.1	2	7	-1.2	i	1.6
C[C@@H]1CN([C@@H](C)CO)C(=O)c2cc(NC(=O)Nc3ccc(F)cc3)ccc2O[C@H]1CN(C)Cc1ccc(C(F)(F)F)cc1	x	x	x	x	-1	-25	3.4	i	2.7

(next part)
SMILES	ALR H2O2 inh	Vif A3G	Ecoli growth	HNF4A DNA FP	rRNA inh HTS	rRNA inh HTS OD600	rRNA inh HTS RFP	FGF22 binding	AF4-AF9 inh
Cc1ccc(OCC(=O)NCCCNC(=O)c2ccccn2)cc1C	-14	x	0.69	-0.7	-1	-3	4.3	i	-3.2
Cc1cccc(NC(=O)c2cccc(S(=O)(=O)N3CCCCC3)c2)c1	x	x	0.67	1.3	1	-30	-0.6	i	2.3
CC(C)NC(=O)Nc1ccc2c(c1)C(=O)N([C@H](C)CO)C[C@@H](C)[C@H](CN(C)C(=O)NC1CCCCC1)O2	x	x	x	x	2	8	-1.9	i	-23
O=C(Nc1ccc(F)c(Cl)c1)c1cc(C2CCCCN2C(=O)C2CC2)on1 (configuration not stated)	x	x	x	-1.0	-7	-21	1.7	i	-7.9
CCN(CC)S(=O)(=O)c1ccc(N2CCOCC2)c(NC(=O)Cc2ccccc2F)c1	-6	x	0.7	2.3	x	x	x	x	x
O=C(Cc1csc(NC(=O)Nc2ccc(Cl)cc2)n1)NCc1cccnc1	x	2%	0.62	0.2	-32*	-21*	-4.3*	i	-0.2
O=C1C(Cl)=C(N2CCCCC2)C(=O)N1c1ccccc1	-3	14%	0.72	-1.2	x	x	x	x	x
CC(C)CC#Cc1cnc2c(c1)C(=O)N([C@H](C)CO)C[C@@H](C)[C@H](CN(C)Cc1ccccc1F)O2	x	x	x	x	-18	-57	26	i	6.0
Cc1noc(C)c1COC(=O)c1ccccc1NC(=O)Cc1ccccc1	-9	12%	0.71	3.5	x	x	x	x	x
C[C@H](CO)N1C[C@H](C)[C@@H](CN(C)S(=O)(=O)c2ccc(Cl)cc2)Oc2ccc(NC(=O)C3CCCCC3)cc2CC1=O	x	x	x	x	0	3	2.5	i	-0.4
O=S1(=O)CCC(N=Nc2c(O)n(Cc3ccccc3)c3ccccc23)C1 (configuration not stated)	-2	-4%	0.72	-1.0	-4	-9	-8.8	i	13
COc1cc(OC)nc(Oc2ccccc2/C=N/O)n1	50	x	x	4.7	7	11	-0.4	i	0.0
CC1=NNC(=O)C1CCC(=O)N/N=C\c1ccc(Cl)c(Cl)c1 (configuration not stated)	57	-2%	x	5.4	2	-5	0.3	i	-0.9
CC(C)CN(C(=O)CN(C)CC(=O)Nc1ccc(Cl)c(C(F)(F)F)c1)c1c(N)n(CC(C)C)c(=O)[nH]c1=O	-3	-5%	0.71	0.6	-19	-59	19	i	-57
C[C@@H]1CN([C@@H](C)CO)C(=O)c2cc(NC(=O)Nc3ccc(F)cc3)ccc2O[C@@H](C)CCCCO[C@@H]1CN(C)S(=O)(=O)c1ccccc1	x	x	x	x	-4	-3	-0.1	i	0.4
CN(C(=O)COC(=O)c1ccc(S(=O)(=O)N2CCOCC2)cc1)C1CCCCC1	4	5%	0.69	0.3	4	5	-1.3	i	0.1
COc1ccccc1-c1cn(CC[C@@H]2CC[C@H](NC(=O)c3cnccn3)[C@@H](CO)O2)nn1	x	x	x	x	0	2	-2.1	i	-2.8
O=C(COc1ccc(Cl)cc1Cl)N/N=C1\CCCc2ccccc21	-11	13%	x	-4.7	x	x	x	x	x
CC(NC(=O)CCC(=O)NCc1ccc(F)cc1)c1ccccc1 (configuration not stated)	-27	-5%	0.67	2.1	7	1	-2.7	i	-2.0

Two records picked at random from those above, as already listed:
SMILES	ALR H2O2 inh	Vif A3G	Ecoli growth	HNF4A DNA FP	rRNA inh HTS	rRNA inh HTS OD600	rRNA inh HTS RFP	FGF22 binding	AF4-AF9 inh
O=C(COc1ccc(Cl)cc1Cl)N/N=C1\CCCc2ccccc21	-11	13%	x	-4.7	x	x	x	x	x
CC(NC(=O)CCC(=O)NCc1ccc(F)cc1)c1ccccc1 (configuration not stated)	-27	-5%	0.67	2.1	7	1	-2.7	i	-2.0

The list is partial; the hit share may differ from the screen's.
